# Bioassay records as filed in PubChem.
# MLL AF4-AF9 inh – blocks AF4 peptide binding to human AF9; inhibition, % at 10 µM; P42568; AlphaScreen, biotin-AF4 peptide binding to FLAG-AF9; 0.47% of 350,000 active;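 active = every replicate reaching a set inhibition limit, whatever the replicate mean, cut at about 25% in these data; inconclusive = mean inhibition reaches that limit but some replicates miss it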;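 note: 0% = plate neutral control median and 100% = total signal loss; the record names both 10 and 1 µM as test concentration; the first replicate is given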
# Target sequence (P42568 whole entry, looked up): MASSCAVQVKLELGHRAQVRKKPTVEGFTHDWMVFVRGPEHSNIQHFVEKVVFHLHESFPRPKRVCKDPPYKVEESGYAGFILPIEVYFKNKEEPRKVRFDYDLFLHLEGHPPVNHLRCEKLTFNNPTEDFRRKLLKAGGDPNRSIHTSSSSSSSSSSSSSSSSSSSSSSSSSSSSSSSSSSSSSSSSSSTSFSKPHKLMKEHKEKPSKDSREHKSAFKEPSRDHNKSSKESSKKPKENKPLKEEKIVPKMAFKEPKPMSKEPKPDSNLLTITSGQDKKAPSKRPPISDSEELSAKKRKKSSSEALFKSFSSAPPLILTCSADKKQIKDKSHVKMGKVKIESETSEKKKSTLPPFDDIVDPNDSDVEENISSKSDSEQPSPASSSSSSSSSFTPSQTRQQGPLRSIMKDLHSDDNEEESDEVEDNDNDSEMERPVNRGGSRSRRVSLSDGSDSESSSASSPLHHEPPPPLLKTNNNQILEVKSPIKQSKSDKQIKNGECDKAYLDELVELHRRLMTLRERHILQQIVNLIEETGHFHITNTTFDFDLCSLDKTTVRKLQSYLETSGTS
# T cruzi inh – blocks replication of Trypanosoma cruzi | T. cruzi beta-gal in NIH3T3, luminescence, 90 h | AID 1885 | inhibition, % (test concentration not listed) | 1.4% of 300,000 active;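 active = mean inhibition across valid replicates above about 55%, limit read from the data; inconclusive = mean below that limit but half or more replicates reach it; inactive = mean below it, under half of replicates reach it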;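 note: signal also drops with host cell toxicity which is not excluded here; 0% = plate median of DMSO wells and 100% = zero luminescence signal; higher percent means less beta-gal luminescence so fewer parasites; stock transfer was 50 nL into about 50 µL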
# A1 inh – inhibitors of the anti-apoptotic protein A1, read as caspase activation; caspase activation, % (concentration not given with the values); MEF A1-2A-BIM cells, Caspase-Glo 3/7 luminescence, 3 h; percent of clofoctol response, vehicle zero; 0.066% of 330,000 active; AID 2462;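 active = over half of replicate activation scores above 10%, or exactly half above 10 with the replicate mean above 10; inconclusive = replicate mean below 10 yet half the replicates above 10; inactive = over half of replicates below 10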;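 note: wells of about 30 µL received 50 nL stock; many hits fall short of the cut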
# rRNA inh HTS – inhibitors of bacterial rRNA selective over humanized ribosomes | E. coli WT GFP vs humanized-ribosome RFP mutants, fluorescence, 24 h; stronger effect = lower value; DMSO median 0, no signal -100 | AID 720706 | GFP signal change (wild-type ribosome), % (test concentration not listed) | 1.6% of 350,000 active;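 active = significant combined selectivity score with lowered wild-type GFP, culture density cut under 30%, mutant RFP and density less affected; inactive = any of these conditions unmet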; note: one replicate is shown; some compounds called inactive have numbers as strong as hits
# Beta cell apopt – beta cell apoptosis inhibition. INS-1E cytokine-induced death, ATP luminescence, 48 h; percent of positive-control rescue, neutral wells zero. protection from apoptosis, % (no concentration beside the values). 0.8% of 300,000 active. AID 435005;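 active = all replicates at 75% or more, or half of them and the mean; inconclusive = half reach 75% but not the mean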;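 note: 0% = cytokine-treated negative control wells and 100% = positive control rescue; higher means more ATP so stronger rescue from cytokine killing; wells of about 40 µL received 100 nL stock; the first replicate is given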
# RanGTP-Impb inh – inhibitors of RanGTP-importin-beta interaction, primary screen, biochemical, FRET, CFP-Ran, YFP-importin-beta, homogeneous; 1.1% of 300,000 active; AID 2216; cell-free CFP-Ran/YFP-importin-beta FRET ratio; inhibition, % (no concentration beside the values);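 active = most replicates above 15%; inconclusive = exactly half above 15%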;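 note: 0% = DMSO wells and 100% = Ran loaded with GDP instead of GTP; wells of about 40 µL received 100 nL stock; the first replicate is given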
# Vif TR-FRET – inhibitors of Vif binding to APOBEC3G peptide, primary screen, biochemical, TR-FRET, GST-Vif 1-94, biotin-A3G peptide, dose response retest (AID 1117319); TR-FRET GST-Vif / biotin-A3G peptide binding; higher % means a stronger effect; test concentration not given here; strong numbers were not always called active; inhibition, %; hits with a dose series show IC50 in µM; 0.57% of 260,000 active;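 active = above the screen mean plus three standard deviations and confirmed in dose response; inconclusive = results disagree or hit not tested in dose response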;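 note: Vif residues 1-94 fused to GST binding biotinylated APOBEC3G peptide 110-148; 0% = full assay without inhibitor and 100% = GST in place of GST-Vif; retest series ran down from 100 µM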
# Calb FLC – C. albicans growth modulation with fluconazole. 0.57% of 300,000 active. growth inhibition, % (test concentration not listed). C. albicans CaCi-2 (fluconazole-resistant clinical isolate) + fluconazole, Alamar Blue growth, 48 h;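 active = most replicates above 75%; inconclusive = exactly half above 75%; inactive = most below 75%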;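 note: all wells also contain fluconazole at 8 µg/ml as a sub-toxic cotreatment; 0% = median of DMSO wells and 100% = median of geldanamycin control wells; wells of about 8 µL received 7.5 nL stock; the first replicate is given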
# rRNA inh HTS OD600 – recorded beside rRNA inh HTS, whose call it bears; OD600 change, %; measured here: OD600 growth;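 optical density of the mix in the first replicate; 0 = DMSO median and -100 = no signal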
# rRNA inh HTS RFP – further read-out of rRNA inh HTS, marked with its call; RFP signal change, %; measured here: RFP humanized mutant strains;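 first replicate; 0 = DMSO median and -100 = no signal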
# * hit, by the source's call; ? = inconclusive; . = no result given; & = joins results of further samples.
SMILES,MLL AF4-AF9 inh,T cruzi inh,A1 inh,rRNA inh HTS,rRNA inh HTS OD600,rRNA inh HTS RFP,Beta cell apopt,RanGTP-Impb inh,Vif TR-FRET,Calb FLC
Cc1ccccc1-n1c(SCC(=O)N/N=C/c2sccc2C)nc2ccccc2c1=O,.,10,-0.2,.,.,.,16,1.2,.,-1
COc1ccccc1OCC(=O)OCC(=O)Nc1sccc1C(N)=O,-3.9,-6,-0.3,-4,-1,-2.8,-1,-0.2,-7%,2
Cc1ccc(/C=c2/sc3nnc(-c4ccccc4Cl)n3c2=O)o1,.,-27,0.0,.,.,.,-6,-7.5,?,3
COC(=O)c1ccc(OC(=O)N2CCOCC2)cc1,1.0,-8,-0.3,2,1,0.8,1,-2.4,.,-17
CCc1ccc(OCC(=O)N2CCc3ccccc32)cc1,-3.2,17,-7.4,-4,3,-2.2,-4,1.2,.,-7
Cc1c(C(=O)Nc2cc(F)ccc2F)sc2nc3n(c(=O)c12)CCCCC3,0.2,1,-1.1,10,19,-0.4,-6,3.0,0%,8
CN(C)c1ccnc2sc3c(=O)n(Cc4ccccc4)cnc3c12,.,-47,-0.1,.,.,.,-18,7.3,-10%,1
Cc1ccnc(NS(=O)(=O)Cc2ccccc2)c1,.,-9,0.1,.,.,.,-1,0.5,-7%,-3
Cc1cc(/C([O-])=C(/C(=S)Nc2ccc(F)cc2)[n+]2ccccc2)c(C)n1-c1ccc(F)cc1,.,-16,-0.5,.,.,.,2,0.6,24%,-33
N#C/C(=C\c1ccncc1)c1ccccn1,-6.0,46,2.3,3,2,0.2,-21,-1.2,-5%,1
Cc1nc(NC(=O)c2ccc(F)cc2)sc1C(=O)Nc1ccc2c(c1)CCC2,.,-14,-6.0,.,.,.,2,3.7,-11%,-13
CCOC(=O)c1cc2c(=O)n3ccccc3nc2n(Cc2ccco2)c1=NC(=O)c1cccnc1,.,14,-1.3,.,.,.,4,2.7,?,16
COc1cc(SC)ccc1C(=O)Nc1ccc2ncccc2c1,-2.5,12,-12,10,6,5.0,10,-2.3,.,45
Nc1c(C(=O)c2ccccc2)sc2c1c(=O)[nH]c(=O)n2-c1ccccc1,.,-17,0.8,.,.,.,-8,1.1,6%,-15
CC1CN(CC(=O)c2c(N)n(Cc3ccccc3)c(=O)n(C)c2=O)CC(C)O1 (stereo not given),.,-12,-1.0,.,.,.,-3,1.0,2%,-14
Cc1cnc(C(=O)N2CCCC(N3CCN(c4ccccc4F)CC3)C2)cn1 (stereo not given),0.6,5,.,10,17,1.2,.,-6.1,.,10
CC(C)[C@H](NC(=O)c1ccco1)C(=O)OCC(=O)Nc1ccc(Cl)c(S(=O)(=O)N(C)C)c1,2.3,-7,-0.3,-11,-5,3.0,-5,3.0,.,?
CN1CCN(C(=O)c2cnn(-c3ccccc3)c2NC(=O)c2ccccc2Br)CC1,-0.2,-7,0.0,5,17,-2.8,1,7.1,.,-17
O=C(c1ccc2c(c1)OCO2)N1CCN(c2ncccn2)CC1,2.9,0,-0.2,14,-5,7.4,-4,?,0%,0
Cc1cccc(C)c1NC(=O)C(NC(=O)c1ccccn1)c1ccccc1[N+](=O)[O-] (stereo not given),3.0,3,0.0,-7,-3,0.4,-3,?,-4%,?
COCCNC(=S)Nc1ccc([N+](=O)[O-])cc1C,-1.2,-21,0.2,0,2,-10,0,0.3,-8%,0
Cc1ccc(-c2csc(NC(=O)CN3CCC(C(N)=O)CC3)n2)cc1,0.0,-1,-0.1,2,3,-2.1,.,7.5,.,3
Cn1cccc1CC(=O)N/N=C/c1ccc(Cl)c([N+](=O)[O-])c1,-2.3,-5,-0.5,1,2,0.2,0,-0.8,13%,-1
COc1ccccc1N(C)S(=O)(=O)c1ccc(Cl)c(C(=O)NCc2ccco2)c1,-13,.,0.4,-6,-8,1.3,4,.,2%,.
O=C(NCc1ccc2c(c1)OCO2)c1cc(-n2cnnc2)ccc1Cl,.,5,0.2,.,.,.,-8,2.4,7%,2
# Next part:
SMILES,MLL AF4-AF9 inh,T cruzi inh,A1 inh,rRNA inh HTS,rRNA inh HTS OD600,rRNA inh HTS RFP,Beta cell apopt,RanGTP-Impb inh,Vif TR-FRET,Calb FLC
COc1ccc(N(CC(=O)O)S(=O)(=O)c2ccc(C)cc2)cc1Cl,-2.5,0,0.1,-2,-10,-2.7,1,.,6%,1
CCCCN1CCN=C1Nc1ccccc1,-1.3,-14,1.4,8,-3,-6.9,-6,6.2,.,1
Cc1cc2ccccc2n1CCNC(=O)C1CCCCC1,19,-5,-1.0,-6,17,36,3,1.9,37µM*,-2
O=c1[nH]n(Cc2ccccc2)c(=O)c2ccccc12,6.8,1,-0.4,-20,-24,3.5,7,0.2,2%,2
O=C(CSc1ccc2nnc(CCNC(=O)c3ccccc3)n2n1)Nc1ccc(F)cc1F,-0.7,4,2.6,3,3,-0.5,-3,-0.8,.,-1
O=C(N/N=C/c1cccc(NC(=O)c2ccc(Cl)cc2)c1)c1cccc(O)c1,0.1,-20,-1.4,-16,-7,3.1,15,1.3,11%,4
Cc1ccccc1OCC(=O)OCC(=O)NCc1ccccc1Cl,1.3,.,-0.5,3,7,1.6,-6,.,.,.
C=CCNC(=O)C1CCC(CNc2nc(=S)[nH]c3ccccc23)CC1 (stereo not given),-2.2,-5,-0.1,11,10,-2.2,-3,-3.8,.,-2
COc1cccc(NC(=O)CN2C(=O)c3cccnc3Oc3ccc(Cl)cc32)c1,2.9,17,-0.3,-1,-14,2.2,0,-5.4,-5%,1
CN1C2CCC1CC(NC(=O)c1ccc(Cl)cc1)C2 (stereo not given),0.2,8,-1.1,.,.,.,-2,3.1,-1%,-2
CCCn1c(SCC(=O)NC(=O)NCc2ccccc2)n[nH]c1=O,?,.,0.9,5,3,-2.1,-5,.,.,.
C=CCN1C(=O)/C(=C2/Sc3ccccc3N2CC)SC1=S,-9.8,15,0.4,7,6,-2.0,12,17*,-11%,15
Cc1nn2c(-c3ccc(Cl)cc3)nnc2s1,.,-6,1.1,.,.,.,0,-1.4,-2%,14
Nc1nc(SCC(=O)Nc2ccc(Br)cc2F)n[nH]1,.,9,0.3,.,.,.,.,-2.2,5%,11
CC1(C)CC[C@]2(C(=O)O)CC[C@]3(C)C(=CCC4[C@@]5(C)CC[C@H](O)C(C)(C)C5CC[C@]43C)C2C1 (stereo not given in full),-9.6,-15,?,.,.,.,2,0.9,2%,2
CCOC(=O)C1C2C=CC3(CN(C4CCCC4)C(=O)C13)O2 (stereo not given),.,-3,-0.2,.,.,.,-5,-1.3,-3%,4
Cc1cc(C)c(C2=NOC3C4CCC(C4)C23)c(C)c1 (stereo not given),1.4,-3,-0.2,0,-5,3.7,-6,0.4,-5%,14
CSc1nnc2c3cc(F)ccc3n(C)c2n1,-3.2,-20,0.1,16,14,2.7,.,0.1,.,0
Cc1ccc(-c2ccc3nnc(SCC(N)=O)n3n2)cc1,-0.5,-15,0.1,-2,1,-0.1,-11,?,-13%,3
CCOC(=O)N1CCN(S(=O)(=O)c2ccc(C(=O)N(CCCN(C)C)c3nc4c(F)cc(F)cc4s3)cc2)CC1,-7.8,48,0.9,10,20,3.6,.,?,-6%,-12
O=C(Nc1ccc(C(F)(F)F)cc1[N+](=O)[O-])O[C@H]1[C@H](Cc2ccccc2)NS(=O)(=O)[C@H]2C[C@@H]3C=C[C@]12O3,0.9,.,1.8,8,-24,-2.0,-7,.,.,.
COC(=O)C(O)(CC(=O)Nc1ccc(OC)cc1)C(F)(F)F (stereo not given),.,-21,0.3,.,.,.,-8,9.6,1%,28
Cc1cc(C(=O)NC2CCCCC2)c(C)o1,-0.5,-2,0.9,11,2,3.6,11,2.4,.,-1
CCOC(=O)Cc1nnc(NC(=O)Nc2ccccc2)s1,.,-9,-0.2,.,.,.,0,2.4,10%,-1
O=C(COc1ccc(-c2nnco2)cc1)Nc1ccc(F)c(Cl)c1,0.0,.,1.1,-12,-15,3.1,4,.,-12%,.

# Sorted by the number under rRNA inh HTS (high to low): 3 of the compounds above
SMILES | rRNA inh HTS
O=C(Nc1ccc(C(F)(F)F)cc1[N+](=O)[O-])O[C@H]1[C@H](Cc2ccccc2)NS(=O)(=O)[C@H]2C[C@@H]3C=C[C@]12O3 | 8
Cc1ccccc1OCC(=O)OCC(=O)NCc1ccccc1Cl | 3
O=C(N/N=C/c1cccc(NC(=O)c2ccc(Cl)cc2)c1)c1cccc(O)c1 | -16

# More entries follow:
SMILES,MLL AF4-AF9 inh,T cruzi inh,A1 inh,rRNA inh HTS,rRNA inh HTS OD600,rRNA inh HTS RFP,Beta cell apopt,RanGTP-Impb inh,Vif TR-FRET,Calb FLC
COC(=O)C(C(C)C)N1CCc2c(C)nc3c(C#N)cnn3c21 (stereo not given),0.3,4,0.4,3,7,-1.5,-5,-2.2,4%,32
Cc1ccc(O)c(NC(=O)c2cc(-c3ccccc3Cl)on2)c1,0.0,-9,-2.5,0,9,1.2,-1,3.0,8%,1
O=C(NCc1ccncc1)c1ccc(NS(=O)(=O)c2ccccc2)cc1,-1.8,-9,1.9,14,3,8.3,-2,1.2,.,5
CCC(C)(C)C(=O)Nc1cc([N+](=O)[O-])ccc1Cl,-5.0,-9,0.3,.,.,.,-4,0.3,-6%,5
COc1ccc(C(C)(C)C)cc1NC(=O)c1c(C)noc1C,.,6,-0.3,.,.,.,5,0.2,4%,-3
CCC(CC)=NNc1cccc([N+](=O)[O-])c1,.,4,-0.7,.,.,.,2,2.8,9%,-9
O=C(CCCCCn1c(SCc2ccncc2)nc2ccccc2c1=O)NCc1ccco1,.,19,0.3,.,.,.,3,-1.0,5%,-3
Cn1c2ccccc2c(=O)c2ccc(C#Cc3ccc(N)cc3)cc21,-24,33,0.1,-1,10,15,29,86*,.,-26
O=C(CCCN1C(=O)c2ccccc2C1=O)Nc1sc2c(c1C(=O)NCc1ccco1)CCC2,.,14,-0.3,.,.,.,-6,?,11%&3%,1
CC(C)(C)NS(=O)(=O)c1ccc(NC(=O)C2CCCCC2)cc1,-0.5,-10,1.0,-7,-1,1.8,-7,3.7,.,20
CCOC(=O)c1ccc(NC(=O)COc2ccccc2CNC2CCCC2)cc1,3.4,48,0.5,-30,-57,44,2,5.0,-4%,-3
Cc1nn(-c2nc3ccccc3s2)c(C)c1Oc1ccccc1O,.,-7,-0.7,.,.,.,-5,-0.7,?,1
CC(C)CC(=O)NC(Nc1ccccc1F)C(Cl)(Cl)Cl (stereo not given),.,0,0.1,.,.,.,-4,-1.0,3%,-19
CC1=C(C(=O)OC(C)C)C(c2ccc(Cl)cc2)n2c(s/c(=C\c3ccc(OCC(=O)O)cc3)c2=O)=N1 (stereo not given),13,19,0.2,2,15,-2.8,.,3.5,1%,13
C=CCN(CC=C)CCOc1ccc(C)cc1[N+](=O)[O-],-0.2,7,-0.2,6,2,1.2,-2,2.1,-7%,-32

# The list is partial, so the mix of outcomes need not match the whole.
